Bioassay records as filed in PubChem.
GIRK2 act: activators of human GIRK2 potassium channels; P48051; 0.05% of 63,000 active; HEK293-GIRK2 thallium flux, Thallos fluorescence; calls only for hits at 25 µM; AID 1259325;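 active means among the strongest 0.2% of first-round signals and kept after retests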;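 further: first round at about 10 µM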
Target sequence (P48051 whole entry, looked up): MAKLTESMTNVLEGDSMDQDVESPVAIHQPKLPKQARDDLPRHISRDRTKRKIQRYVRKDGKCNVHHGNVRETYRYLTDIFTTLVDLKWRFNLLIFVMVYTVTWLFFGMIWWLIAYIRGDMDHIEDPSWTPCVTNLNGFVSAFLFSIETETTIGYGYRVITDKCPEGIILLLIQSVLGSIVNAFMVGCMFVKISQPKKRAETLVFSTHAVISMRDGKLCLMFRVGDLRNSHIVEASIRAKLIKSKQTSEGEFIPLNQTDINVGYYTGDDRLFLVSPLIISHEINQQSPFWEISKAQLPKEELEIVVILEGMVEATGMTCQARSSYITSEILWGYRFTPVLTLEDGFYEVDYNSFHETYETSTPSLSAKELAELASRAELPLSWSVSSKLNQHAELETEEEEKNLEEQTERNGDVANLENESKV
Calls only; i = inactive. A portion of the library; rates above refer to the full screens.

GIRK2 act | smiles
i | NC(=O)Cn1c(COc2ccccc2Cl)nc2ccccc21
i | CCCCC/C=C\C/C=C\C(O)CC(O)CCCCC(=O)O (centres undefined)
i | CC(=O)C(C)n1c(CN2CCN(c3ccccc3)CC2)nc2c1c(=O)n(C)c(=O)n2C (centres undefined)
i | COc1ccc(N2CCN(C(c3cccs3)C(C)NS(=O)(=O)c3ccc(F)cc3)CC2)cc1 (centres undefined)
i | Cc1ccc(S(=O)(=O)N(C)c2ccsc2C(=O)NCC2CCCO2)cc1Cl (centres undefined)
i | COc1ccc(S(=O)(=O)N2CCCOC2CNC(=O)C(=O)NCCCO)cc1C (centres undefined)
i | CCN1C(=O)C(C)(C)COc2cc(NC(=O)c3cccn(C)c3=O)ccc21
i | COc1cccc(-n2nnc(C(=O)Nc3ccc(C)cc3[N+](=O)[O-])c2C)c1
i | COc1ccccc1N1CCN(C(CNS(=O)(=O)c2ccc(F)cc2)c2cccnc2)CC1 (centres undefined)
i | O=C(Cn1cnc2ccccc21)NCCOc1cccc2cccnc12
i | CCOC(=O)c1cnn2ccc(NC(=O)C3(c4ccccc4)CCOCC3)cc12
i | CN1CCN(c2nnc(SCC(=O)Nc3ccc4c(c3)OCCO4)s2)CC1

Next part
GIRK2 act | smiles
i | NC(=O)c1ccccc1OCC#CCNC(=O)c1cccc(C(F)(F)F)c1
i | COc1ccc(OCc2noc(CNC(=O)CN3C(=O)c4ccccc4C3=O)n2)cc1
i | COc1cc(C(=O)NCC#CCOc2ccc3c(c2)OCO3)cc(OC)c1OC
i | Cc1ccc(NC(=O)c2ccc(Cl)cc2)cc1N1CCCC1=O
i | O=S(=O)(c1cccs1)N1CC(c2nc(Cc3cccs3)no2)C1
i | O=C(Cn1cc(-c2ccc(F)cc2)cn1)NCCCn1ccnc1
i | O=C(Nc1cnc(N2CCN(c3ccccn3)CC2)nc1)c1cnccn1
i | CCCCCn1c(=O)c2c(nc3n(C(C)c4ccccc4)c(C)c(C)n23)n(C)c1=O (centres undefined)
i | COc1ccc(-c2csc(-n3nc(C)cc3NC(=O)C3CC3)n2)cc1OC
i | O=C(C1CC=CCC1)N1CCN(CC(O)c2ccco2)CC1 (centres undefined)
i | Cn1cccc(C(=O)NCC2(O)CCc3ccccc3C2)c1=O (centres undefined)
i | O=S(=O)(c1ccc2ccccc2c1)N1CCN(c2ccccc2)CC1

(further entries)
GIRK2 act | smiles
i | Cc1cc(NC(=O)C2COc3ccccc3O2)n(-c2nc3ccccc3s2)n1 (centres undefined)
i | COc1ccccc1CN1CCc2nc(SCC(=O)NCc3ccc(Cl)cc3)[nH]c(=O)c2C1
i | CCC(C(=O)NCc1cc(-c2ccco2)n(C)n1)c1ccccc1 (centres undefined)
i | COc1ccc(OC)c(S(=O)(=O)NCCNc2ccc(Nc3cc(C)ccn3)nn2)c1
i | Cc1cccc(-n2c(C)cn3c4c(=O)n(CCCO)c(=O)n(C)c4nc23)c1C
i | CC(=O)Nc1ccc(S(=O)(=O)N2CC(c3nc(-c4ccc[nH]c4=O)no3)C2)cc1
i | Cc1cc(NC(=O)c2ccc(C)c([N+](=O)[O-])c2)n(-c2nc(-c3ccc(F)cc3)cs2)n1
i | O=C(CN1CCN(Cc2nc3ccccc3n2Cc2ccccc2)CC1)Nc1ccccc1F
i | O=C(c1ccc(-n2cccc2)cc1)N1CCN(C(=O)c2cnn3ccccc23)CC1
i | COc1cccc(NC(=O)Nc2nnc(-c3ccc(S(C)(=O)=O)cc3)o2)c1
i | CCn1c(=O)[nH]c2c(C(=O)N3CCN(Cc4ccccc4)CC3)snc2c1=O
i | COc1ncccc1C(=O)Nc1cc(N2CCN(c3ccccc3)CC2)ncn1

Other results
GIRK2 act | smiles
i | O=C(Nc1cccc(-n2cnnn2)c1)c1cc2ccccc2o1
i | COC(=O)c1ccc(C(=O)N2CCN(C(=O)c3cnn4ccccc34)CC2)cc1
i | Cc1cc(C)c(NC(=O)C(=O)NC2CCCCC2)c(C)c1
i | COC(=O)c1ccc(S(=O)(=O)NCC2CCN(C(=O)c3cc4ccccc4o3)CC2)cc1
i | CC(C)c1ccc(CN2N=NC3C(=O)N(c4ccc(F)cc4)C(=O)C32)cc1 (centres undefined)
i | CC(O)c1cc2c(cc1[N+](=O)[O-])OCO2 (centres undefined)
i | Cc1cc(NC(=O)C(=O)NCC2CCN(C)CC2)no1
i | Cc1cccc(-c2noc(Cn3cnc4c(cnn4-c4ccc(C)c(Cl)c4)c3=O)n2)c1
i | Cc1cc(NC(=O)C(=O)NCC2CCN(C(C)C)CC2)no1
i | O=C(NCC1CCN(C(=O)c2ccncc2)CC1)NC(c1ccccc1)c1ccccc1
i | Cn1c(NCc2ccco2)nc2c1c(=O)n(Cc1ccccc1)c(=O)n2C
i | CN(C)CC1CSCCCN1C(=O)NCc1cccc2ccccc12 (centres undefined)

5 neighbouring records from above, for reference:
GIRK2 act | smiles
i | Cc1cccc(-c2noc(Cn3cnc4c(cnn4-c4ccc(C)c(Cl)c4)c3=O)n2)c1
i | Cc1cc(NC(=O)C(=O)NCC2CCN(C(C)C)CC2)no1
i | O=C(NCC1CCN(C(=O)c2ccncc2)CC1)NC(c1ccccc1)c1ccccc1
i | Cn1c(NCc2ccco2)nc2c1c(=O)n(Cc1ccccc1)c(=O)n2C
i | CN(C)CC1CSCCCN1C(=O)NCc1cccc2ccccc12 (centres undefined)

Of the compounds above, 3 contain an NH in an aromatic ring.
GIRK2 act | smiles
i | COc1ccccc1CN1CCc2nc(SCC(=O)NCc3ccc(Cl)cc3)[nH]c(=O)c2C1
i | CC(=O)Nc1ccc(S(=O)(=O)N2CC(c3nc(-c4ccc[nH]c4=O)no3)C2)cc1
i | CCn1c(=O)[nH]c2c(C(=O)N3CCN(Cc4ccccc4)CC3)snc2c1=O

Further structures follow.
GIRK2 act | smiles
i | COc1ccc(S(=O)(=O)NCCC(O)c2cc(C)oc2C)cc1Cl (centres undefined)
i | C#CCOCC1CCCN(C(=O)C(CC)c2ccccc2)C1 (centres undefined)
i | O=C(CSc1nnc(CCc2nc3ccccc3[nH]2)o1)Nc1nc(-c2ccco2)cs1
i | COc1ccc(CNC(=O)Nc2nnc(-c3ccco3)o2)cc1OC
i | COc1ccc(Br)cc1S(=O)(=O)NCCOc1cc(C)cc(C)c1
i | COCCNS(=O)(=O)c1cc(N(C)S(=O)(=O)c2ccc(Cl)cc2)c(C)cc1C
i | COC(=O)C(C)NC(=O)c1ccc(S(=O)(=O)N2CCOCC2)cc1 (centres undefined)
i | CCC1CCCCN1S(=O)(=O)c1cc(C)c(Br)cc1C (centres undefined)
i | COc1cccc(-c2csc(-n3nc(C)cc3NC(=O)COc3ccc(C)cc3)n2)c1
i | COc1cccc(N2CC(C)Cn3c2nc2c3c(=O)n(Cc3ccccc3)c(=O)n2C)c1 (centres undefined)
i | Cc1csc(C(=O)NCc2ccc(C(O)c3cccs3)s2)c1 (centres undefined)
i | Cc1ccc(C(C)C)c(OCC(O)CN2CCCCCC2)c1 (centres undefined)

More entries:
GIRK2 act | smiles
i | C=CCN1CC(c2nc3ccccc3n2Cc2ccc3ccccc3c2)CC1=O (centres undefined)
i | O=C(CCC(=O)N1CCN(CCn2cccn2)CC1)c1ccccc1
i | Cc1nc2sccn2c1-c1nnc(SCc2ccc([N+](=O)[O-])cc2)n1C
i | Cc1ccc(S(=O)(=O)NCCC(=O)O)c(C)c1N(C)S(=O)(=O)c1ccccc1
i | CC(C)CCN1C(=O)C(C)(C)COc2ccc(NC(=O)COc3ccccc3)cc21
i | CCn1c(=O)c2c(nc3n2CC(C)CN3c2cccc(OC)c2)n(C)c1=O (centres undefined)
i | Cc1ccc(NC(=O)Nc2cnc(Oc3ccccc3)nc2)cc1
i | COc1ccc(C(=O)COc2ccc3c(c2)O/C(=C\c2cccc(OC)c2OC)C3=O)cc1
i | Cc1cc2ncn(CC3CCN(C(=O)C(C)Oc4ccccc4)CC3)c2cc1C (centres undefined)
i | O=C(Cn1nnn(-c2ccc(NC(=O)c3cnc4ccccc4n3)cc2)c1=O)NC1CC1
i | O=C1Nc2cc(Cl)ccc2C1=O
i | O=C(NCc1ccc(C(=O)c2cccs2)s1)c1ccsc1

Later entries:
GIRK2 act | smiles
i | COc1ccc(C(=O)/C=C/c2ccc(F)cc2)c(O)c1
i | COc1ccc(NC(=O)Cn2c(N3CCCCC3)nc(C)cc2=O)cc1F
i | CCOC(=O)Cn1c(=O)c2c(nc3n(-c4cc(C)cc(C)c4)c(C)c(C)n23)n(C)c1=O
i | COc1ccccc1C(=O)Nc1nnc(-c2ccccc2)o1
i | Cc1cccc2sc(NC(=O)CCc3csc(NC(=O)NC4CCCCC4)n3)nc12
i | O=C(Nc1ccc(F)cc1)OC1CCCC(NC(=O)c2ccccc2C(F)(F)F)C1 (centres undefined)
i | Cc1nc(-n2nc(C3CC3)cc2NC(=O)c2ccc(Br)o2)[nH]c(=O)c1C
i | CC(C)COC(=O)c1ccc2[nH]c(O)c(C=Nc3ccc(S(N)(=O)=O)cc3)c2c1
i | COc1ccc(CNC(=O)NCCc2nc(C3CC3)cc(C(F)(F)F)n2)cc1
i | CCc1noc(-c2ccc(SCC(=O)NCc3ccc(Cl)cc3)nc2)n1
i | COc1nc(Nc2ccccc2[N+](=O)[O-])nc(OC)n1
i | CCOc1cc(NS(=O)(=O)c2ccc(F)c(Cl)c2)ncn1

Given comma-delimited: part of the list above.
SMILES,GIRK2 act
COc1ccccc1C(=O)Nc1nnc(-c2ccccc2)o1,i
Cc1cccc2sc(NC(=O)CCc3csc(NC(=O)NC4CCCCC4)n3)nc12,i
O=C(Nc1ccc(F)cc1)OC1CCCC(NC(=O)c2ccccc2C(F)(F)F)C1 (centres undefined),i
Cc1nc(-n2nc(C3CC3)cc2NC(=O)c2ccc(Br)o2)[nH]c(=O)c1C,i
CC(C)COC(=O)c1ccc2[nH]c(O)c(C=Nc3ccc(S(N)(=O)=O)cc3)c2c1,i
COc1ccc(CNC(=O)NCCc2nc(C3CC3)cc(C(F)(F)F)n2)cc1,i

Additional compounds:
GIRK2 act | smiles
i | Cc1ccc(NC(=O)c2ccnc(N3CCCC3)c2)cc1-c1ccc(C(=O)NCC2CC2)cc1
i | COCCNC(=O)C(=O)NCC1OCCCN1S(=O)(=O)c1ccc2c(c1)OCCO2 (centres undefined)
i | COc1ccccc1-c1nnc(NC(=O)c2ccc(-c3ccccc3)cc2)o1
i | COc1cccc(C(=O)Nc2ccc(-n3nnc(C(=O)NC4CC4)n3)cc2)c1
i | CCC(=O)N1CCN(C(=O)C(NC(=O)c2ccc(Cl)cc2)S(=O)(=O)c2ccccc2)CC1 (centres undefined)
i | Cc1c(C(=O)N2CCC(Cn3ccnc3)CC2)cnn1-c1ccccc1
i | Cn1c(=O)[nH]c(=O)c2c1nc(NCCN1CCOCC1)n2CCOc1ccccc1
i | O=C1Nc2ccc(-c3cccnc3)cc2C1=Cc1cc(Br)c(O)c(Br)c1
i | O=C(NCC#CCOc1cccc(C(F)(F)F)c1)c1ccc(Cn2ccnc2)cc1
i | FC(F)(F)c1nnc(C2CCN(Cc3ccc(Cl)c(Cl)c3)CC2)o1
i | O=C(NCCn1nc(C2CC2)n(-c2ccccc2)c1=O)Nc1ccc2c(c1)OCO2
i | NC(=O)Cn1ccn(-c2ccccc2)c(=O)c1=O

The list continues.
GIRK2 act | smiles
i | COc1ccc(-c2csc3ncnc(SCc4c(C)noc4C)c23)cc1
i | CCSc1ccccc1C(=O)NCc1cc(-c2ccco2)n(C)n1
i | C#CCOCC1CCCN(C(=O)c2cc(Cl)ccc2Cl)C1 (centres undefined)
i | CC(=O)Nc1ccc(NC(=O)COc2cc(C)nc(-c3ccc(F)cc3)n2)cc1
i | CCc1ccc(S(=O)(=O)N2CCCSCC2CN(C)C)s1 (centres undefined)
i | Cc1ccc(C(=O)NC2CCN(C(=O)c3cn(-c4ccccc4)nn3)CC2)cc1C
i | O=C(NCC1CCN(c2cnccn2)CC1)C1(c2ccc(Cl)cc2)CCCC1
i | COc1cccc(CNC(=O)Cn2cnc3c(oc4ccccc43)c2=O)c1OC
i | COc1cc(C(=O)NCc2nn(C3CCCC3)c(=O)c3ccccc23)cc(OC)c1OC
i | COc1ccccc1-c1c(C(F)(F)F)oc2cc(OCC#N)ccc2c1=O
i | COc1cc(/C=C(\C#N)C(N)=O)cc(CSc2nc3ccccc3s2)c1O
i | O=C(NCc1ccco1)C1CCN(c2ccc(-c3ccco3)nn2)CC1

The listing continues:
GIRK2 act | smiles
i | O=C(NCCC1=CCCCC1)c1nnc2n(c1=O)CCN2c1ccccc1
i | COc1ccc(S(=O)(=O)N2CCC(Oc3cnccn3)CC2)cc1C
i | O=C(CSc1ccc(F)cc1)Nc1ccc(-c2ccn[nH]2)cc1
i | CC(C)NC(=O)c1ccc2c(=O)n(C(C)C)c3nn(Cc4c(F)cccc4Cl)c(=O)n3c2c1
i | COc1ccc(NC(=O)COc2cc(C)nc(N3CCCC3)n2)cc1Cl
i | CC(C)(C)c1ccc(NC(=O)NCCn2ncccc2=O)cc1
i | O=C(CSc1nnc2scc(-c3ccccc3)n12)c1ccc(Cl)cc1
i | O=C(Cn1nc(C2CC2)n(-c2ccccc2)c1=O)N1CCc2ccccc21
i | CN(C)S(=O)(=O)c1ccc(C(=O)N2CC(Oc3nc4c(F)cccc4s3)C2)cc1
i | CCOc1ccc(-c2ccc(N3CCN(S(=O)(=O)c4ccc(NC(C)=O)cc4)CC3)nn2)cc1
i | COc1ccc(-c2cc3c4nn(CC(=O)Nc5cc(OC)cc(OC)c5)c(=O)n4ccn3n2)cc1
i | COC(=O)c1cc(OC)c(OC)cc1NC(=O)c1ccc2noc(-c3ccccc3)c2c1

More records
GIRK2 act | smiles
i | Cc1ccc(N2C(=O)C3N=NN(CC(=O)Nc4ccc(Cl)cc4)C3C2=O)cc1C (centres undefined)
i | Cc1ccc(NC(=O)CSc2nc3c(c(=O)[nH]2)CN(Cc2ccc(F)cc2)CC3)cc1Cl
i | COc1ccc(NC(=O)COc2cc(C)nc(N3CCCCCC3)n2)cc1Cl
i | Cc1ccc2nc(C3CN(C(=O)COc4ccc(Cl)cc4Cl)C3)[nH]c2c1
i | Cc1noc(C)c1S(=O)(=O)NCCc1nc(C2CC2)cc(C(F)(F)F)n1
i | Cc1cc(C)c(NC(=O)Cn2c(=O)n(Cc3ccccc3)c(=O)c3c2c2cc(C)ccc2n3C)c(C)c1
i | CCOC(=O)c1c(NCc2ccccc2)c2cccc(Cl)c2[nH]c1=O
i | O=C(NCc1ccccc1)c1c2c(nn1C1CCS(=O)(=O)C1)CCC2 (centres undefined)
